Screening data as filed in PubChem.
Autofluor counter = flagged as autofluorescent in microsphere protease counterscreen. 360,000 tested, 3.1% active. compound autofluorescence counterscreen, microsphere flow cytometry; hits give high values. fluorescence intensity (concentration not given with the values);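 active = at least 3 SD above the mean of all compounds, about 16000 in these data; inconclusive = too few beads counted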;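 also: 100 nL of 1 mM stock went into each well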
BJeLR viability = BJeLR cell viability loss; inhibition, % (concentration not given with the values); AID 1554; BJeLR (HRASV12) viability, CellTiter-Glo ATP luminescence, 48 h; reference of the scale not given here; 300,000 tested, 0.17% active;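 active = replicate mean above 50%; inconclusive = above 50% but judged a plate artefact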;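 also: 50 nL library stock added to about 25 µL; numbers are from one replicate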
Mtb hypoxia rep = reduces hypoxia-regulated biosensor signal in M. tuberculosis | fluorescence inhibition, % (test concentration not listed) | M. tuberculosis hypoxia-regulated fluorescent reporter, fluorescence | 300,000 tested, 0.1% active;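 active = 35 to 45% if threefold the growth effect, above 45% if 1.5-fold the growth effect; inactive = the rest, general growth blockers included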;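 also: wells of about 50 µL received 100 nL stock; 0% = vehicle wells and 100% = reference inhibitor wells; whole bacteria with a GFP reporter of the hypoxia response; strong numbers were not always called active; many hits fall short of the cut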
PrP 5UTR inh = inhibition of PrP 5' UTR reporter expression | cell-based PrP 5' UTR mRNA reporter, plate reader | AID 488862 | 340,000 tested, 0.35% active | inhibition, % (test concentration not listed);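 active = every replicate at 50% or more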;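 also: 0 = median of the neutral control wells; tested in H4 reporter cells; numbers are from one replicate; inactives centre near -14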
ugtP null kill = compounds lethal to S. aureus RN4220 ugtP deletion mutant. growth inhibition, % (test concentration not listed). OD600 growth, 16 h; some inactives read as strong as hits. 330,000 tested, 0.54% active. AID 1259309;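 active = z-score under -3 and OD600 up to 0.15 on both plates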;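 also: plate controls were untreated wells for no effect and antibiotic for full effect; wells of about 80 µL received 100 nL stock; the first replicate is given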
RN4220 kill = S. aureus RN4220 growth inhibition | OD600, 16 h | inhibition, % (test concentration not listed) | 330,000 tested, 0.33% active | AID 1259311;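 active = z-score of -3 or lower and OD600 up to 0.18 on both plates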;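 also: plate controls were untreated cells for no effect and reference antibiotic for full effect; stock transfer was 100 nL into about 80 µL; one replicate is shown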
Mtb hypoxia rep growth = further read-out of Mtb hypoxia rep, marked with its call; growth inhibition, %; measured here: M. tuberculosis growth (absorbance);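 0% = vehicle and 100% = reference antibiotic; read after six days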
* = called active by the depositor; ? = inconclusive; . = not tested or not shown.

SMILES	Autofluor counter	Mtb hypoxia rep growth	PrP 5UTR inh	ugtP null kill	Mtb hypoxia rep	BJeLR viability	RN4220 kill
CCCCNC(=O)c1cc2cc(CC)ccc2[nH]1	.	-1.0	-27.3	-11.8	-7.3	-11.0	-5.9
COCc1cc(C)nc2sc(C(=O)OC)c(N)c12	8896	5.1	-10.8	-0.4	0.7	-20.5	2.8
CCOC(=O)N1C(=O)c2cc(OC)ccc2S1(=O)=O	3396	10.3	-10.1	0.9	9.2	11.3	5.7
Nc1ncnc2nc(N3CCN(C(=O)c4ccccc4)CC3)[nH]c12	2926	13.6	-25.3	-2.1	13.0	8.2	-12.7
COc1ccc(/C=C(\C#N)C(=O)C(C)(C)n2cncn2)cc1	4796	.	-16.5	.	.	-1.1	.
CCc1ccc(C2CC(c3ccccc3)Nc3nc(N)nn32)cc1 (centres undefined)	5467	.	-28.9	-11.0	.	6.6	1.4
CN1CCN(/N=C/c2nc(-c3ccccc3)n3ccccc23)CC1	2232	.	-27.0	.	.	2.6	.
COc1ccc(Cl)cc1C(=O)Nc1nc2ccccc2[nH]1	5624	.	46.5	.	.	14.8	.
C(=N\Nc1nc(N2CCOCC2)nc(N2CCOCC2)n1)/c1cccnc1	22356*	.	-0.3	.	.	-14.9	.
O=c1[nH]c2ccccc2n1CCCSCCCn1c(=O)[nH]c2ccccc21	19717*	25.9	-81.6	-11.8	14.2	4.2	4.9
O=C(c1cccc(OC2CCN(Cc3cc(F)cc(F)c3)CC2)c1)N1CCCC1	4047	4.3	4.5	0.8	4.1	0.4	0.5
COc1ccc(NC(=O)c2cccc(N3C(=O)C4C5C=CC(C6CC56)C4C3=O)c2)cc1 (centres undefined)	6601	-1.6	-7.4	3.9	0.7	1.6	-0.8
O=C(Nc1ccccc1Cc1ccccc1)c1ccccc1F	3514	10.1	-16.6	4.1	2.2	2.1	-0.5
O=c1[nH]c(C2CCN(S(=O)(=O)Cc3ccccc3)CC2)nc2c1nnn2Cc1ccccc1	2990	0.2	-9.9	10.8	16.2	-4.4	3.0
NNc1nc2c(Cl)cccc2s1	6941	-4.0	-27.9	-8.8	9.0	-14.1	4.1
Cc1ccc(C(=O)NN=Cc2ccncc2)s1	.	7.4	.	4.1	8.2	.	-0.3
NNC(=O)c1cc(-c2ccc(N)cc2)nc2ccc(Br)cc12	6231	5.9	.	-3.0	-2.0	-7.2	4.9
Cc1c(C(=O)N(C)Cc2ccccc2)oc2ccc(S(=O)(=O)N3CCCC3)cc12	9706	6.5	-19.8	-4.4	3.3	-9.2	-1.7
COc1ccc(C(=O)NCCn2cc(SCC(N)=O)c3ccccc32)cc1	5998	-5.9	-11.0	3.6	-1.0	1.7	6.4
COc1ccc(NC(=O)c2ccc(NC(=O)CCS(=O)(=O)c3cccs3)cc2)cc1	3366	-2.8	-10.6	-6.7	-0.9	2.7	0.0
CC(=O)c1ccc(NS(=O)(=O)c2cc3c(cc2C)N(C)CCO3)cc1	?	3.8	-1.7	3.6	14.6	7.7	3.1
O=c1cc(N2CCCCCC2)[nH]c(=O)n1-c1ccccc1Cl	2008	0.5	-20.9	10.8	-3.8	.	4.5
Cc1cccc(N2CN(Cc3ccco3)CNC2=S)c1	2451	-0.3	-0.2	11.0	1.4	-5.5	4.9
COc1cccc(C2NC(=S)NC(C)=C2C(=O)c2ccccc2)c1OC (centres undefined)	5070	-3.8	14.5	3.1	-0.1	21.2	4.5
COc1cccc(NC(=O)C(C)Oc2ccccc2)c1 (centres undefined)	3245	-0.6	-24.4	-4.9	6.5	6.6	1.4
COc1ccc(C)cc1NC(=O)c1cc(S(=O)(=O)N2CCOCC2)cn1C	6097	11.8	-11.3	-1.2	11.4	6.2	-7.6
O=C(COc1ccc(C(=O)c2ccccc2)cc1)NC1CCCCC1	8388	7.0	-27.2	1.1	10.1	-0.3	-1.3
CCn1c(NC(=O)c2ccc(F)cc2)c2ccccc2nc1=O	19832*	13.1	-8.6	5.0	6.3	-5.3	5.0
Cc1[nH]nc(SCC(=O)N(C)c2ccccc2)c1[N+](=O)[O-]	4618	2.1	-24.5	2.4	13.8	2.7	0.8
Cc1ccc2c(c1)C1(OCCCO1)C(=O)N2CC#N	3588	-2.0	-16.5	-5.4	-4.7	7.6	0.5
COc1cccc(N=CC2=C(O)CC(C)(C)CC2=O)c1	2402	.	-11.6	.	.	-10.0	.
CSc1ccccc1NC(=O)Nc1ccccc1	25193*	4.2	-28.1	1.5	6.3	10.5	5.9
CCn1c(SCC(=O)NN=C(C)c2ccncc2)nnc1-c1ccccc1	.	-0.5	.	5.5	-2.7	.	1.0
Cc1ccc(NC(=O)CNc2ccc(Cl)c(Cl)c2)cc1S(=O)(=O)N(C)C	2565	0.1	-5.9	-35.7	3.1	-2.0	-8.2
CCOc1ccc(/C=C2/C(=O)NC(=O)N(CCc3ccc(F)cc3)C2=O)cc1	1934	-3.8	-28.7	3.8	0.6	-9.6	1.0
COc1ccc(C(=O)CCC(=O)Nc2ccc(Cl)cc2)cc1	3736	12.9	-15.9	8.8	7.1	-2.1	5.2
Cc1cc([N+](=O)[O-])nn1CC(=O)NCCc1c[nH]c2ccccc12	3208	-2.2	-18.1	0.9	4.7	8.8	3.7
O=[N+]([O-])c1ccc2nc(CCCc3nc4ccc([N+](=O)[O-])cc4[nH]3)[nH]c2c1	4831	-2.4	-38.6	5.5	1.4	0.7	1.1
Cc1ccc(C(O)P(=O)(OCCC(C)C)c2ccc(N(C)C)cc2)cc1 (centres undefined)	3919	5.1	-3.9	-11.2	-12.3	-1.9	5.9
Cc1oc(-c2ccc(F)cc2)nc1CN1CCCC(C(=O)N2CCOCC2)C1 (centres undefined)	4851	-9.4	-3.6	8.7	2.8	-0.4	1.8
COc1ccc(-c2nnc(SC(C)C(=O)Nc3nccs3)n2-c2ccccc2)cc1OC (centres undefined)	10597	-4.9	-11.6	-9.0	-15.2	-5.4	2.9
CC(C)(C)c1ccc(OCC(=O)NN2Cc3ccccc3C2=N)cc1	4254	11.6	2.2	7.0	5.1	.	3.1
CCC1Cc2c(nc(N)c3c(N)nc(N4CCOCC4)c(C#N)c23)O1 (centres undefined)	4205	-2.6	-2.1	4.0	-4.2	-13.5	-4.8
Cc1nc2sc3c(c2c(=O)n1N=Cc1ccco1)CCCC3	.	6.0	.	-1.2	-0.3	.	2.9
CC(=O)Oc1cc2oc(=O)cc(C)c2cc1Cl	4438	0.7	-20.9	-3.5	4.8	3.6	2.1
CN(C(=O)COC(=O)c1cc(S(=O)(=O)N2CCOCC2)ccc1F)C1CCS(=O)(=O)C1 (centres undefined)	5092	-1.5	-6.7	5.3	5.1	-3.7	0.7
CN(C(=O)c1cccc(NC(=O)Cc2ccc(NC(=O)C3CCN(S(=O)(=O)c4cccc([N+](=O)[O-])c4)CC3)cc2)c1)C1CCCCC1	3565	-4.5	-26.8	4.7	-3.3	.	3.0
COc1ccc(OC)c(Cc2nnc(CCC(=O)NCc3nc4ccccc4s3)o2)c1	4855	12.6	-28.1	-1.1	-9.5	-6.1	0.9
O=C(NCCN1C(=O)S/C(=C\c2cccnc2)C1=O)c1ccc(S(=O)(=O)N2CCCC2)cc1	3643	24.2	-21.6	4.7	22.5	12.6	7.3
CCOc1ccc(NC(=O)Nc2nc(SCC)ns2)cc1	3939	1.0	-6.0	-14.4	-17.0	-12.0	2.1

Later entries
SMILES	Autofluor counter	Mtb hypoxia rep growth	PrP 5UTR inh	ugtP null kill	Mtb hypoxia rep	BJeLR viability	RN4220 kill
O=C(O)c1ccc(COc2c(F)c(F)c(F)c(F)c2F)o1	19586*	4.6	-39.8	3.8	2.4	-16.7	2.5
Cc1ccc(-c2nnc3c4ccccc4c(C)nn23)cc1S(=O)(=O)N1CCN(C)CC1	20956*	7.2	-10.8	-5.4	-2.2	.	2.0
Cc1ccc(NS(=O)(=O)c2ccc3c(c2)NC(=O)CO3)cc1	5725	-7.8	-4.9	-2.8	-7.3	-0.3	1.8
Cc1ccc2nc(C)c3c(c2c1)N(c1ccc(F)cc1)CC3	3758	6.0	-11.5	-9.6	-1.6	2.2	-0.9
CCc1noc(C)c1C(=O)N1CCN(S(=O)(=O)c2ccc(Cl)s2)CC1	5706	-0.5	-27.5	2.4	-5.4	0.2	3.7
COc1cccc(NS(=O)(=O)c2cc(C)ccc2OC)c1	2755	.	-9.0	3.0	.	-3.3	1.2
COCCNC(=O)COc1ccc(C)cc1C(=O)c1cc(C#N)c(=O)n(C2CC2)c1	4516	3.3	-26.8	-1.1	-1.2	7.0	2.3
Cc1ccc(CN2C3=NCCCN3c3ccccc32)cc1	3149	11.4	-32.4	11.6	19.9	.	-2.2
COc1ccc(Nc2ccncc2[N+](=O)[O-])cc1	4249	7.7	-115.0	5.1	5.0	7.5	5.1
CCOc1ccc(C(=O)NN=Cc2cc([N+](=O)[O-])cs2)cc1	.	21.2	.	5.8	12.3	.	5.6
Cc1ccc2c(C(=O)CN3CCC4(CC3)OCCO4)c(C)[nH]c2c1	5539	.	-11.0	-3.5	.	.	1.1
O=C(COC(=O)Cc1cccs1)Nc1ccccc1Cl	3929	6.6	-22.7	4.9	11.9	-11.2	7.6
Cc1ccccc1NC(=O)c1nnn(-c2ccc3c(c2)OCCO3)c1N	5530	0.6	-125.2	-3.7	9.5	1.0	-0.4
CCOC(=O)/C(=N\Nc1ccccc1)N1CC1	4184	.	-38.3	.	.	13.2	.
COC(=O)c1nn(-c2ccccc2)c(-c2ccccc2)c1C(=O)c1ccccc1	2689	.	-13.3	-1.4	.	2.3	-0.3
OCc1cn(-c2ccccc2)nc1-c1cc2ccccc2o1	4897	-2.6	-54.2	0.5	4.3	-17.8	5.3
COC(=O)c1[nH]c2c(c1C)C(=O)CC(c1cc(OC)c(OC)c(OC)c1)C2 (centres undefined)	3149	-1.3	-6.3	5.3	9.1	-1.0	1.8
Cc1cc(O)c(C(=O)/C=C/c2ccccc2O)c(=O)o1	3568	4.1	.	-0.7	6.9	1.8	2.6
CCCCN(CC)C(=O)CN(C)S(=O)(=O)c1cccc2nsnc12	6470	0.1	-8.5	7.8	4.1	9.4	0.6
C=CCN(CCNP(=O)(OCC)OCC)CP(=O)(OCC)OCC	6072	.	-20.1	8.3	.	-8.5	-1.1
C(#Cc1ccccc1)C[N+]1(CC#Cc2ccccc2)CCCC1	2890	10.6	-20.7	8.7	6.7	2.6	5.2
COc1ccc(N=C(N)N=C(N)N)c(OC)c1	2521	-6.8	-0.5	-13.7	-2.1	2.4	-1.3
O=C(NCCCN1CCOCC1)c1ccc(CNS(=O)(=O)c2ccc(Br)cc2)cc1	10591	6.5	-2.0	-0.9	2.7	12.9	2.1
CC(C)C[C@@H](CO)N1CCN(Cc2cccc(C#N)c2)CCC1=O	4422	.	-21.5	.	.	0.7	.
COc1cc(C(=O)N2C[C@H]3CC[C@H]2C3)ccc1OC1CCN(C(C)=O)CC1	6211	2.9	-0.1	8.8	10.7	1.0	0.4
Cc1cccc(N2CCN(c3ccc(N4C(=O)CCCC4=O)cc3[N+](=O)[O-])CC2)c1C	2555	4.9	2.2	17.7	3.5	2.0	15.2
Cc1ccc(CNC(=O)C2CCN(S(=O)(=O)c3cccs3)CC2)o1	11282	1.9	-11.7	7.1	0.7	0.5	8.2
O=C1NC(=O)C2(COC(c3cccc([N+](=O)[O-])c3)OC2)S1 (centres undefined)	4078	7.9	-18.9	5.3	3.3	-4.4	6.7
Cc1cccc(NC(=S)N/N=C/c2cccn2Cc2ccc(F)cc2)c1	4318	.	2.5	.	.	-4.0	.

Random excerpt: 2 records from the list
SMILES	Autofluor counter	Mtb hypoxia rep growth	PrP 5UTR inh	ugtP null kill	Mtb hypoxia rep	BJeLR viability	RN4220 kill
COC(=O)c1[nH]c2c(c1C)C(=O)CC(c1cc(OC)c(OC)c(OC)c1)C2 (centres undefined)	3149	-1.3	-6.3	5.3	9.1	-1.0	1.8
Cc1cc(O)c(C(=O)/C=C/c2ccccc2O)c(=O)o1	3568	4.1	.	-0.7	6.9	1.8	2.6
